B2AR ag: activates human beta-2 adrenergic receptor causing internalization; Am2.2-beta2AR cells, FAP receptor internalization, flow cytometry; reference of the scale not given here; P07550; 340,000 tested, 0.43% active; response, % (no concentration beside the values);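 active = response above a set limit, near 3 SD of response in nonfluorescent compounds, cut at about 42% in these data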;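 note: stock transfer was 100 nL into about 11 µL; a reference agonist was the positive control; negative values mostly stem from fluorescent compounds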
Target sequence (P07550 whole entry, looked up): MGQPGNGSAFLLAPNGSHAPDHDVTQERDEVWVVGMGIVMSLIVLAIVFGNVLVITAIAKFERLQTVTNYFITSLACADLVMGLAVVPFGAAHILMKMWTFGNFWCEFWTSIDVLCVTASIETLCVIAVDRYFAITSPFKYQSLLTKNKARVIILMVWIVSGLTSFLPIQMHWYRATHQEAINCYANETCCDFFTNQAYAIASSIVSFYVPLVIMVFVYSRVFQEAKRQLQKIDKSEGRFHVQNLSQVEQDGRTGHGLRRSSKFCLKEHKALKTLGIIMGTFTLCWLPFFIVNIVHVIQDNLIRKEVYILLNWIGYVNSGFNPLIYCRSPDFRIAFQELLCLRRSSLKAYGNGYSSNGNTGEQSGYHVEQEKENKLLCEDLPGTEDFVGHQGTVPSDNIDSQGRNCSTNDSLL
HNF4A DNA FP: change in binding of human HNF4 alpha to DNA; activity change, % at 10 µM; P41235; 360,000 tested, 0.3% active; HNF4a-FITC DNA binding, fluorescence polarization, 1 h; in the data active = activity change above about 30%, passing the limit was not always enough;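 note: controls were the assay level and a saturating level of protein; the project sought stronger binding though the title names inhibitors; some compounds called inactive have numbers as strong as hits; positive values seem to mean higher polarization but the record does not say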
FGF22 binding: shifts melting point of recombinant human FGF22 | calls only at 9.99 µM | Q9HCT0 | 340,000 tested, 1.5% active | recombinant FGF22 thermal shift, SYPRO orange fluorescence; percent of sucrose octasulfate shift, DMSO zero;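 active = melting point raised past a set limit in the mean and every replicate; three in four hits are not shown here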
Target sequence (Q9HCT0 whole entry, looked up): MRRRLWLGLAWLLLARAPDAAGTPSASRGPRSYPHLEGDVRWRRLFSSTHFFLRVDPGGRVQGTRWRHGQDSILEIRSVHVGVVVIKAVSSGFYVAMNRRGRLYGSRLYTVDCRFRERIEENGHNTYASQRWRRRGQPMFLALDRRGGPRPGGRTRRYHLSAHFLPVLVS
ALR inh: blocks human ALR sulfhydryl oxidase activity | purified ALR, DTT oxidation, H2O2 HRP-luminol luminescence | inhibition, % (concentration not given with the values) | 290,000 tested, 3.8% active | AID 485317;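 active = mean and each replicate at 75% or more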;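 note: stock transfer was 7.5 nL into about 7.5 µL; 0% = neutral wells and 100% = wells with inactivated enzyme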
Target sequence (P55789 whole entry, looked up): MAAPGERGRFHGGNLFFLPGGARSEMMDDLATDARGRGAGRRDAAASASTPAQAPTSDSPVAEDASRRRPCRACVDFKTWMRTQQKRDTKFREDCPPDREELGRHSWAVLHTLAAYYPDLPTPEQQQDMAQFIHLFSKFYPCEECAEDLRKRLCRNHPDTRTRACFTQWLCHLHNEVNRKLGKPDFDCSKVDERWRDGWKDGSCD
rRNA inh HTS: inhibitors of bacterial rRNA selective over humanized ribosomes; E. coli WT GFP vs humanized-ribosome RFP mutants, fluorescence, 24 h; hits give low values; DMSO median 0, no signal -100; GFP signal change (wild-type ribosome), % (concentration not given with the values); 350,000 tested, 1.6% active; AID 720706;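 active = significant combined selectivity score with lowered wild-type GFP, culture density cut under 30%, mutant RFP and density less affected; inactive = any of these conditions unmet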; note: one replicate is shown; some compounds called inactive have numbers as strong as hits
E coli growth: blocks Escherichia coli growth; OD600 absorbance (concentration not given with the values); 330,000 tested, 0.21% active; AID 1053175; OD600, 23 h; hits give low values;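 active = OD600 absorbance below the run mean of sample wells minus 3.6 SD, in any replicate, cut at about 0.56 in these data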;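 note: stock transfer was 300 nL into about 60 µL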
UCH37 DUB inh: blocks the human deubiquitinase UCH37 | Q9Y5K5 | purified proteasome/UCH37, Ub-AMC cleavage fluorescence | inhibition, % (concentration not given with the values) | 330,000 tested, 0.33% active;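 active = mean of two replicates above 20%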;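 note: 0% = compound-free wells with enzyme and 100% = wells lacking proteasome; stock transfer was 100 nL into about 20 µL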
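Material: Human UCH37 enzyme supplied as purified proteasome complex | Schedule: 30 min compound-proteasome preincubation then 25 min substrate reaction, room temperature | Detection: AMC fluorescence from Ub-AMC cleavage, excitation 355 nm, emission 460 nm | Benchmarks: Wells without proteasome as full block, compound-free enzyme plus substrate as uninhibited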
rRNA inh HTS OD600: also measured in rRNA inh HTS; calls as there; OD600 change, %; measured here: OD600 growth;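 optical density of the mix in the first replicate; 0 = DMSO median and -100 = no signal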
rRNA inh HTS RFP: second read-out of rRNA inh HTS, no call of its own (marks repeat the call); RFP signal change, %; measured here: RFP humanized mutant strains;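 first replicate; 0 = DMSO median and -100 = no signal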
The depositor's hits bear a star.

Screening Cc1ccccc1-c1nc(CS(=O)CC(=O)NCc2ccc3c(c2)OCO3)c(C)o1 (stereo unspecified) returned B2AR ag 6.2, HNF4A DNA FP 2.3, FGF22 binding inactive, ALR inh 98.4*, rRNA inh HTS -22.1, E coli growth 0.704, UCH37 DUB inh 2.0, rRNA inh HTS OD600 -18.4 and rRNA inh HTS RFP -1.7.
Screening O=C(CCNC(=O)C1CCN(S(=O)(=O)c2ccccc2)CC1)NCc1ccc(Cl)c(Cl)c1 returned B2AR ag -3.2, HNF4A DNA FP -5.4, FGF22 binding inactive, ALR inh -2.8, rRNA inh HTS -7.4, E coli growth 0.705, UCH37 DUB inh 1.0, rRNA inh HTS OD600 -23.9 and rRNA inh HTS RFP 1.5.
`Cc1ccc(C(=O)N/N=C\c2ccccn2)cn1` gave B2AR ag -8.7, HNF4A DNA FP 9.5 and FGF22 binding inactive.
COc1ccc(N(CC(=O)N/N=C(\C)c2ccccc2)S(=O)(=O)c2ccccc2)cc1 was read as B2AR ag -6.2, HNF4A DNA FP 3.6, FGF22 binding inactive, ALR inh -5.1, rRNA inh HTS 6.9, rRNA inh HTS OD600 10.8 and rRNA inh HTS RFP -2.9.
`COc1ccccc1C(CNC(=O)C1CCN(C(=O)Nc2ccccc2)CC1)N1CCCC1` (stereo unspecified) gave B2AR ag -6.2, HNF4A DNA FP -2.9, FGF22 binding inactive, rRNA inh HTS 4.3, E coli growth 0.683, UCH37 DUB inh -0.7, rRNA inh HTS OD600 9.5 and rRNA inh HTS RFP -1.0.
CCOc1c(Br)cc(C(N)=O)cc1OC was read as B2AR ag 3.7, HNF4A DNA FP -2.1, ALR inh -11.4, E coli growth 0.656 and UCH37 DUB inh -0.3.
O=C(CN1C(=O)NC2(CCCCC2)C1=O)N1CCN(S(=O)(=O)/C=C/c2ccccc2)CC1 was read as B2AR ag -5.5, HNF4A DNA FP -0.3, FGF22 binding inactive, ALR inh -0.4, rRNA inh HTS 3.8, E coli growth 0.709, UCH37 DUB inh 0.3, rRNA inh HTS OD600 -0.7 and rRNA inh HTS RFP 2.3.
O=C(Nc1ccc(F)cc1)c1cc2cc(Cl)ccc2[nH]1 was read as B2AR ag 0.1, HNF4A DNA FP 0.5, FGF22 binding inactive, ALR inh -1.2, rRNA inh HTS 6.0, E coli growth 0.69, UCH37 DUB inh -3.0, rRNA inh HTS OD600 10.6 and rRNA inh HTS RFP 3.5.
Screening O=C(O)c1cnn(-c2nc(-c3ccc(Cl)c(Cl)c3)cs2)c1C(F)(F)F returned B2AR ag 20.1, HNF4A DNA FP -0.8, FGF22 binding inactive, ALR inh 0.6, rRNA inh HTS -55.5, E coli growth 0.684, UCH37 DUB inh -3.5, rRNA inh HTS OD600 -76.1 and rRNA inh HTS RFP -17.1.
`COc1ccc(CNC(=O)CCc2cc(OC)c(OC)c(OC)c2)cc1` gave B2AR ag 5.3, HNF4A DNA FP -2.0, FGF22 binding inactive, rRNA inh HTS -16.4, E coli growth 0.669, UCH37 DUB inh 5.0, rRNA inh HTS OD600 -4.3 and rRNA inh HTS RFP -3.9.
Screening CC(C)CCn1c(O)c(N=Nc2ccccn2)c2ccccc21 returned B2AR ag -4.8, HNF4A DNA FP -0.6, ALR inh -1.5, E coli growth 0.671 and UCH37 DUB inh 2.3.
For NCc1cc2c3c(c1)CCCN3CCC2 the results were B2AR ag -4.5, HNF4A DNA FP 10.5, FGF22 binding inactive, ALR inh 49.2, rRNA inh HTS 18.1, E coli growth 0.634, UCH37 DUB inh 1.3, rRNA inh HTS OD600 11.4 and rRNA inh HTS RFP 4.7.
COc1ccccc1N1C(=O)c2cccc3c(Cl)ccc(c23)C1=O was read as B2AR ag -2.4, HNF4A DNA FP 1.3, FGF22 binding inactive, ALR inh -9.6, rRNA inh HTS 3.9, E coli growth 0.723, UCH37 DUB inh 0.3, rRNA inh HTS OD600 2.7 and rRNA inh HTS RFP 5.0.
For COc1ccc(NS(=O)(=O)c2ccc(N3CCCC3)c(NC(=S)Nc3cccc(S(=O)(=O)N(C)C)c3)c2)cc1 the results were ALR inh 0.3, E coli growth 0.684 and UCH37 DUB inh -0.3.
For Cc1ccc(C(=O)N2CCN(c3cccc(C)c3C)CC2)o1 the results were B2AR ag -12.6, HNF4A DNA FP 0.2, FGF22 binding inactive, ALR inh 5.7, rRNA inh HTS -10.1, E coli growth 0.693, UCH37 DUB inh -1.3, rRNA inh HTS OD600 -17.9 and rRNA inh HTS RFP -4.5.
Cc1c(-n2c(SCC(=O)O)nnc2-c2ccccc2Cl)c(=O)n(-c2ccccc2)n1C was read as B2AR ag -0.5, HNF4A DNA FP 0.5, ALR inh -27.3, E coli growth 0.668 and UCH37 DUB inh 4.0.
`COc1cc(OC)c(NC(C)C(=O)N2CCCC2)cc1Cl` (stereo unspecified) gave B2AR ag 1.7, HNF4A DNA FP 2.4, FGF22 binding inactive, ALR inh 78.9*, rRNA inh HTS 8.0, E coli growth 0.717, UCH37 DUB inh 1.2, rRNA inh HTS OD600 9.2 and rRNA inh HTS RFP 16.2.
`CCOc1ccc(C2CC(c3cccc(C)c3)n3ncnc3N2)cc1` (stereo unspecified) gave B2AR ag -12.4, HNF4A DNA FP 3.4, rRNA inh HTS -27.8, E coli growth 0.733, UCH37 DUB inh 2.0, rRNA inh HTS OD600 -37.7 and rRNA inh HTS RFP -3.4.
`CCc1ccc(C(=O)NNC(=O)[C@H](C)NC(=O)c2ccco2)cc1` gave B2AR ag 20.0, HNF4A DNA FP -2.2, FGF22 binding inactive, ALR inh -2.5, rRNA inh HTS 7.0, E coli growth 0.677, UCH37 DUB inh 1.7, rRNA inh HTS OD600 -5.8 and rRNA inh HTS RFP 2.6.
COC(=O)[C@@]1(Cc2ccc(OC)cc2)[C@H]2c3cc(C(=O)N4CCCC4)n(C[C@H](O)CO)c3C[C@H]2CN1C(=O)c1ccccc1 was read as FGF22 binding inactive, ALR inh -5.8, rRNA inh HTS 3.2, UCH37 DUB inh 1.5, rRNA inh HTS OD600 4.3 and rRNA inh HTS RFP 0.1.
Screening CCC1(CC)C(=O)NC(=O)NC1=Nc1cccc(OC)c1 returned B2AR ag 7.9, HNF4A DNA FP 0.3, ALR inh -6.2, E coli growth 0.776 and UCH37 DUB inh 1.1.
`Cc1ccccc1NC(=O)c1ccc(F)c(S(=O)(=O)NCC2CCCO2)c1` (stereo unspecified) gave B2AR ag -1.0, HNF4A DNA FP 1.5, FGF22 binding inactive, ALR inh -8.6, rRNA inh HTS 4.9, E coli growth 0.635, UCH37 DUB inh -1.1, rRNA inh HTS OD600 2.9 and rRNA inh HTS RFP 0.3.
For COc1ccc([C@H]2CC(=O)C[C@@H](CCn3cc(CCc4ccccc4)nn3)O2)cc1 the results were HNF4A DNA FP -2.9, FGF22 binding inactive, rRNA inh HTS -13.2, rRNA inh HTS OD600 -22.7 and rRNA inh HTS RFP 1.7.
Screening COCCNCCCOc1ccc(C(C)(C)c2ccccc2)cc1 returned B2AR ag -3.7, HNF4A DNA FP 1.6, E coli growth 0.616 and UCH37 DUB inh 5.1.
For CCN(CC)C(=S)NC(=O)Cc1ccccc1 the results were B2AR ag 0.7, HNF4A DNA FP 3.4, FGF22 binding inactive, ALR inh 5.6, rRNA inh HTS 0.7, E coli growth 0.68, UCH37 DUB inh -2.7, rRNA inh HTS OD600 6.3 and rRNA inh HTS RFP 0.8.
Screening COC(=O)c1ccc(OCC(=O)Nc2ccccc2C(=O)NC2CC2)cc1 returned B2AR ag -1.3, HNF4A DNA FP 0.3, FGF22 binding inactive, ALR inh 1.6, rRNA inh HTS 11.5, rRNA inh HTS OD600 9.3 and rRNA inh HTS RFP 3.2.
`O=C(NCC(c1ccco1)N1CCc2ccccc2C1)c1ccc(Br)cc1` (stereo unspecified) gave B2AR ag -6.0, HNF4A DNA FP -0.5, FGF22 binding inactive, ALR inh -7.3, rRNA inh HTS -12.4, E coli growth 0.675, UCH37 DUB inh 4.0, rRNA inh HTS OD600 -13.1 and rRNA inh HTS RFP 2.2.
For COC(=O)/C=C\C(=O)Nc1cccc([N+](=O)[O-])c1 the results were B2AR ag 12.9, HNF4A DNA FP -2.0, FGF22 binding inactive, ALR inh 97.8*, rRNA inh HTS -9.4, E coli growth 0.65, UCH37 DUB inh 1.4, rRNA inh HTS OD600 3.8 and rRNA inh HTS RFP -5.7.
Screening Cc1ccc(COC(=O)CN2C(=O)NC3(CCCC3)C2=O)cc1 returned B2AR ag -3.3, HNF4A DNA FP -0.6, FGF22 binding inactive, ALR inh -0.9, rRNA inh HTS 0.5, E coli growth 0.697, UCH37 DUB inh 0.5, rRNA inh HTS OD600 3.2 and rRNA inh HTS RFP 1.1.
Cc1ccccc1N(CC(=O)N/N=C/c1ccc(N(C)C)cc1)C(=O)c1ccccc1 was read as B2AR ag -0.9, HNF4A DNA FP -1.6 and ALR inh -3.9.

Three structures from above, arranged by length of the SMILES, rising.
Screening COCCNCCCOc1ccc(C(C)(C)c2ccccc2)cc1 returned B2AR ag -3.7, HNF4A DNA FP 1.6, E coli growth 0.616 and UCH37 DUB inh 5.1.
Screening CC(C)CCn1c(O)c(N=Nc2ccccn2)c2ccccc21 returned B2AR ag -4.8, HNF4A DNA FP -0.6, ALR inh -1.5, E coli growth 0.671 and UCH37 DUB inh 2.3.
For COc1ccc(NS(=O)(=O)c2ccc(N3CCCC3)c(NC(=S)Nc3cccc(S(=O)(=O)N(C)C)c3)c2)cc1 the results were ALR inh 0.3, E coli growth 0.684 and UCH37 DUB inh -0.3.

(listing goes on)
For Cc1[nH]c(C)c(S(=O)(=O)NCc2ccc(F)cc2)c1C(=O)N1CCCCC1 the results were B2AR ag 2.2, HNF4A DNA FP -0.7, FGF22 binding inactive, ALR inh 3.9, rRNA inh HTS 3.3, E coli growth 0.649, UCH37 DUB inh 3.6, rRNA inh HTS OD600 -3.3 and rRNA inh HTS RFP -3.6.
COCCN(Cc1cc2cc(C)ccc2n2nnnc12)C(=S)Nc1ccccc1C was read as B2AR ag 0.3, HNF4A DNA FP -0.2, FGF22 binding inactive, ALR inh -0.6, rRNA inh HTS 10.9, E coli growth 0.721, UCH37 DUB inh 0.6, rRNA inh HTS OD600 14.6 and rRNA inh HTS RFP -0.8.
O=C(Nc1ccc(F)cc1)C(c1ccccc1)N1CCN(S(=O)(=O)c2ccc3ccccc3c2)CC1 (stereo unspecified) was read as B2AR ag -9.7, HNF4A DNA FP 3.9, FGF22 binding inactive, E coli growth 0.71 and UCH37 DUB inh 0.3.
CCCC(=O)NC(c1ccc(N(C)C)cc1)c1ccc2cccnc2c1O (stereo unspecified) was read as B2AR ag 12.4, HNF4A DNA FP 12.5, FGF22 binding inactive, ALR inh 90.4*, rRNA inh HTS -16.3, rRNA inh HTS OD600 -20.4 and rRNA inh HTS RFP -0.1.
For Cc1ccc(S(=O)(=O)N2CCN(C(=O)c3ccccc3OCc3c(C)noc3C)CC2)cc1 the results were B2AR ag 2.1, HNF4A DNA FP 3.2, FGF22 binding inactive, ALR inh -8.4, rRNA inh HTS 1.2, E coli growth 0.665, UCH37 DUB inh 1.0, rRNA inh HTS OD600 -4.4 and rRNA inh HTS RFP -1.8.
Screening O=C(NCCCN1CCOCC1)C1(c2ccccc2)CCOCC1 returned B2AR ag 0.9, HNF4A DNA FP 1.9, ALR inh -12.7, E coli growth 0.657 and UCH37 DUB inh 4.9.

Screening data (PubChem BioAssay)

The list is partial; the hit share may differ from the screen's.
